gsp antag = antagonizes gsp, the McCune-Albright syndrome mutation; gsp-mutant cells, cAMP HTRF, 30 min; control for the full effect not named in the record; 340,000 compounds, 0.4% hits; Potency, µM (doses to about 76.9 µM), inactives show at the top dose activity change, negative = inhibition, hits mostly inhibitors; active = falling curve of any shape with a large fitted effect; inconclusive = falling curve, mostly with a smaller effect; inactive = flat or rising curve; cell line not stated here;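 also: intracellular cAMP measured with PDE inhibitor Ro 20-1724 present during compound exposure; potency is read from the fitted curve at half-maximal effect; % is scaled to controls: 0 for no effect and ±100 for the full control effect; nearly all actives have a fitted effect of over 65% in size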
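Cells in G418 medium, seeded 16-24 h, 37C; buffer exchange to DPBS + 1 mM CaCl2, 0.5 mM MgCl2, 0.05% BSA; cpds in DMSO + […] (300 uM stock), 30 min 37C; HTRF cAMP detection.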
Sfp PPTase inh = blocks B. subtilis Sfp PPTase activity | Biochemical Sfp PPTase activity, qHTS | Q9F4F7 | Potency, µM, without a hit: max response, negative = inhibition, usual class: inhibitors | 310,000 compounds, 3.5% hits; active = well fitted inhibition curve with a large enough effect; inconclusive = small, poorly fitted or top-dose-only effect, or another doubt; inactive = no such curve, though single readings can be large or run the other way;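 also: the enzyme is Sfp with the accession as filed and its product quenches rhodamine fluorescence; potency is read from the fitted curve at half-maximal effect; 0% = enzyme reaction without inhibitor and -100% = no enzyme wells; top concentration of the series not given in the record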
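With Hepes-Na pH 7.6 buffer containing 10 mM MgCl2, Sfp (15 nM) modified BHQ-2-YbbR (12.5 uM) using rhodamine-CoA (5 uM). Two reads 30 minutes apart at 525/598 nm yielded each well's rate.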
Menin MLL FP FL = menin-MLL binding inhibition, fluorescein peptide; Fluorescence polarization, fluorescein-MLL peptide displacement from menin; FP activity change, % at 61.4 µM; 290,000 tested, under 10 active; AID 1766; inconclusive = falling polarisation curve, or a change in total fluorescence; inactive = total fluorescence flat and polarisation flat or rising; no compound was filed as active; the % refers to the polarisation; negative = inhibition;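 also: % of control where 0% means no effect; inhibitors lower the polarisation; unlabelled MLL peptide was the positive control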
gsp agonist = agonists of gsp mutant (McCune-Albright syndrome); gsp mutant cells, cAMP HTRF, 30 min; control for the full effect not named in the record; Potency, µM (top dose mostly 76.9 µM), for the others: at the top dose activation (cAMP increase), hits mostly activators; 340,000 compounds, 0.13% hits; AID 624287; active = well fitted activation curve with a large enough effect; inconclusive = small, poorly fitted or top-dose-only effect, or another doubt; inactive = no such curve, though single readings can be large or run the other way; cell line not stated here;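 also: phosphodiesterase inhibitor Ro 20-1724 added with compounds to block cAMP breakdown; potency is read from the fitted curve at half-maximal effect; nearly all actives have a fitted effect of over 60% in size; about a fifth of the inactives were tested at one dose only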
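Cells stably selected in G418 were plated at 2000/well, grown 16-24 hr, then given compounds in DMSO with the PDE inhibitor […] (300 uM solution added) for 30 min at 37C; cAMP was read by HTRF.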
CtBP-E1A inh = inhibitors of CtBP/E1A interaction; 340,000 compounds, 0.49% hits; AID 651724; AlphaScreen GST-E1A/His-CtBP binding, 1536-well; active compounds read low; control for the full effect not named in the record; activity change, % (no concentration beside the values); in the data active means activity change below about -65%; inconclusive means about -30% to -65%; inactive means above about -30%; also: % is scaled to controls: 0 for no effect and ±100 for the full control effect
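GST-E1A and His-tagged CtBP (125 nM each as 5X stock) were preincubated with pin-transferred compound for 2 h at 37 °C in the dark, then glutathione donor and nickel acceptor beads were added for 1 h before AlphaScreen reading.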
TRPV1 potentiator = potentiators of human vanilloid receptor 1 (TRPV1); AID 540277; potentiation, % at 8.33 µM; 320,000 compounds, 0.02% hits; TRPV1-expressing cells, Fluo-8 calcium influx, capsaicin EC20 potentiation; host cell line not named in the record; control for the full effect not named in the record; active means potentiation above 80%; inconclusive means 30% to 80%; inactive means below 30%; also: 0% is about no effect
Target sequence (Q8NER1 whole entry, looked up): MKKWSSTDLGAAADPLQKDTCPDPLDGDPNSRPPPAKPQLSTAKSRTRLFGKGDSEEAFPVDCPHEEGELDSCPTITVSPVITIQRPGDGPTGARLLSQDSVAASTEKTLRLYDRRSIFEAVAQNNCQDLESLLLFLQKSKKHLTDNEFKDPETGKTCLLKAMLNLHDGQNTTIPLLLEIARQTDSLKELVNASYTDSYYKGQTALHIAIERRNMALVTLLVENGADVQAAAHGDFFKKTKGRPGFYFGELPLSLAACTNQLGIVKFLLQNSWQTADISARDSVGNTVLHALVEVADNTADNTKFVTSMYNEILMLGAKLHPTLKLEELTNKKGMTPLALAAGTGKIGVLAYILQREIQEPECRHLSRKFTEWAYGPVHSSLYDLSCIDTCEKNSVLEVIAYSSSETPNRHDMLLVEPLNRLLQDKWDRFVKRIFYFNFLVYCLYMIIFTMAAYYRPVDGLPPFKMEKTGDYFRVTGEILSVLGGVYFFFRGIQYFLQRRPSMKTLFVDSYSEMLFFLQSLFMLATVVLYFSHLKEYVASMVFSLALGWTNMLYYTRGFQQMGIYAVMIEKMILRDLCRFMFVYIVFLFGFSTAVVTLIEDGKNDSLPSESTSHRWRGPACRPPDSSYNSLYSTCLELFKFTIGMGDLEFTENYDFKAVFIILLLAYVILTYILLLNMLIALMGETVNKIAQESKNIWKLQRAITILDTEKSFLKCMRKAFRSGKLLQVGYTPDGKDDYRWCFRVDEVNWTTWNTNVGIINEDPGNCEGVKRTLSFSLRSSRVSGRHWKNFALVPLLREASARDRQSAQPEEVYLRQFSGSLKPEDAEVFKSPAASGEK
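TRPV1-expressing cells were cultured overnight at 35.5C and loaded with Fluo-8 calcium dye for 40 to 90 min at room temperature. After a 10 s baseline, compound was added and calcium influx was read kinetically for 3 min (ex 480/em 520 nm).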
ClpP mod = qHTS Assay for Activators of ClpP; purified B. subtilis ClpP, FRET peptide cleavage, 20 min; 340,000 compounds, 1.9% hits; Potency, µM (titrated, usually from 57.5 µM), for inactives: top-dose activity change, negative = active; active = well fitted falling curve with a large enough effect; inconclusive = small, poorly fitted or top-dose-only effect; inactive = no such curve, though single readings can be large or run the other way; also: potency is read from the fitted curve at half-maximal effect; the source files actives as falling curves though it sought activators and does not explain the sign; nearly all actives have a fitted effect of over 65% in size; many hits overshoot -100%
Target sequence (P80244 whole entry, looked up): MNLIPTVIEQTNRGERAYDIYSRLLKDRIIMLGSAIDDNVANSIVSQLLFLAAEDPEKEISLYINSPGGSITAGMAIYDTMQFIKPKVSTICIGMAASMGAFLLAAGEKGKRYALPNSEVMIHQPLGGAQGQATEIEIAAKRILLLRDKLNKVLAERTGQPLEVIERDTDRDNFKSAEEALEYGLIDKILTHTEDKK
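ClpP 10 microg/mL final, pH 8 Tris/KCl buffer with BSA, glycerol, Tween-20; compound pinned in; FRET-FV substrate; RT 20 min; Ex320/Em430; ΔFRET vs ADEP 5.8 microM, DMSO, no enzyme.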
* marks the source's active call; other numbers are inactive results; ? = inconclusive; / = not tested or not shown; [ ] = remark or other dose. This is a random part of the collection. About 5.3% of those tested had a hit in this group.

SMILES	gsp antag	Sfp PPTase inh	Menin MLL FP FL	gsp agonist	CtBP-E1A inh	TRPV1 potentiator	ClpP mod
COc1ccc(CN2CCC[C@]3(N[C@H](c4ccccc4)[C@@H]4C(=O)N(Cc5ccccc5)C(=O)[C@@H]43)C2=O)cc1	/	/	/	20%	-4	/	-1.5%
CCNc1ccc(C(=O)NN=C2CCCC2)cc1[N+](=O)[O-]	2%	4%	0.8	16%[15.4 µM]	-3	7	-1.6%
Cc1[nH]n(-c2ccccc2)c(=O)c1/C=N\NC(=O)C1COc2ccccc2O1 (stereo not given)	-3%	7%	-0.1	-32%	-81*	6	-2.0%
COC(=O)Nc1nc2c(C)cccc2s1	3%	8%	4.6	-15%	46	22	1.5%
N#CCCN(C(=O)CSc1nc(-c2ccccc2)cn1N)c1ccc(F)cc1	4%	27%	-1.4	-25%	2	-8	-0.1%
CC1CCCCC1NC(=O)CN1C(=O)COc2ccccc21 (stereo not given)	-6%	14%	/	-3%	-13	-4	-3.0%
Cc1ccc(C)c(OCC(=O)Nc2ccc3c(c2)OCO3)c1C	-4%	-3%	2.0	4%	-2	-9	-3.6%
COc1cccc(NC(=O)C2CCC(CNS(=O)(=O)c3cccc4cccnc34)CC2)c1 (stereo not given)	-18%	17%	0.9	-2%	1	16	/
Cn1c(-c2ccc(F)cc2)cnc1SCC(=O)Nc1ccccc1N1CCOCC1	-13%	-4%	-1.8	-6%	-14	?	-21%
COCCCn1c(=O)c2sccc2n(Cc2ccccc2C)c1=O	-6%	0%	-2.3	0%	11	-13	-0.2%
COC(=O)c1ccc(CNC(=O)c2cc(S(=O)(=O)NCc3ccccc3)ccc2C)cc1	/	/	/	-6%	-9	/	-1.7%
Cc1cc(NC(=O)c2ccc(-c3ccccc3F)o2)no1	-10%	28%	-2.6	0%	-16	-15	/
CN(CC(=O)Nc1ccccc1Cl)C(=O)COC(=O)c1ccc(C(F)(F)F)cc1	14%	/	/	1%	0	-23	-1.6%
CC[C@@H](C)[C@@H](C(=O)N1CCN(C(=O)OC(C)(C)C)CC1)n1cc(CCC(=O)O)nn1	7%	10%	1.0	/	8	-70	0.8%
O=C(NCCO)/C(=C\c1ccco1)NC(=O)c1ccco1	2%	-9%	-9.6	?	-14	-5	/
Cc1nn(-c2ccccc2)c2sc(C(=O)N3CCOCC3)cc12	6%	4%	2.2	9%	-3	-10	-2.2%
CCc1nnc(NC(=O)c2sc3nc4c(cc3c2N)CCCCC4)s1	-9%	1%	0.1	15%	0	5	?
CNS(=O)(=O)c1ccc2c(c1)NC(=O)C1CCCN21 (stereo not given)	-12%	-10%	14	14%	2	?	?
C/C(=N\NC(=O)C1(C)CC1(Br)Br)c1cccc(NC(=O)c2ccc(C)o2)c1 (stereo not given)	-27%	-1%	/	-2%	4	-17	-0.4%
O=C(c1cc(-c2ccc(Br)cc2)on1)N1CCCC1	4%	-3%	6.6	-12%	-12	-8	/
CC(C)(C)c1nnc(N/N=C/c2ccccc2)n(N)c1=O	-8%	79µM*	3.1	-10%	-7	-3	-2.2%
COc1ccc(C2C(CC(=O)O)=C(Nc3ccccc3)C(=O)N2c2ccccc2)cc1 (stereo not given)	-15%	9%	0.2	-11%	/	1	1.2%
CC(=O)Nc1ccc(NC(=O)COc2cc(C)cc3oc(=O)cc(C)c23)cc1	8%	8%	3.5	11%	2	-10	?
CCOc1ccc(CCNC(=O)C2CC(=O)N(Cc3ccc(C)cc3)C2)cc1OCC (stereo not given)	3%	/	/	-74%[inhibitor]	-10	-11	-2.4%
Cc1ccc(NC(=O)CSc2nnc(CCC(=O)O)c(=O)[nH]2)cc1	6%	-4%	-2.7	6%[15.4 µM]	8	13	/
The results go on:
SMILES	gsp antag	Sfp PPTase inh	Menin MLL FP FL	gsp agonist	CtBP-E1A inh	TRPV1 potentiator	ClpP mod
CC1CCCCC1NC(=O)Cn1c(CN2CCCCC2)nc2ccccc2c1=O (stereo not given)	8%	9%	11	9%	8	-14	-1.4%
CCc1c(C)sc(NC(=O)c2ccco2)c1C(=O)N1CCOCC1	-2%	?	-3.5	7%	-9	14	-5.6%
OCCN1CCN(CC/C=C2/c3ccccc3Sc3ccc(Cl)cc32)CC1	1%	/	/	/	-22	-3	-3.5%
COC(C(=O)N/N=C(\C)CC(=O)Nc1ccc(Cl)cc1C)c1ccccc1 (stereo not given)	1%	11%	-0.4	0%[15.4 µM]	-13	-13	/
Cc1c(NC(=O)c2cccc(NC(=O)COc3cccc(Br)c3)c2)c(=O)n(-c2ccccc2)n1C	-6%	/	/	2%	0	/	-1.8%
Cc1ccc(C2(C)NC(=O)N(CC(=O)NCCN3C(=O)S/C(=C\c4cccnc4)C3=O)C2=O)cc1 (stereo not given)	2%	/	/	?	26	/	0.5%
COc1ccc(NC(=O)COC(=O)CCCN2C(=O)c3ccccc3C2=O)cc1Cl	0%	2%	4.3	12%	0	7	-1.6%
O=C(NCC1CCCO1)c1ccc(CS(=O)(=O)Cc2ccc(F)cc2)o1 (stereo not given)	1%	5%	3.3	-24%	2	4	-16%
CCc1cccc(CC)c1NC(=O)c1ccccc1	-2%	15%	-3.6	-3%	2	-11	/
CC(=O)c1ccc(S(=O)(=O)Nc2ccc(N3CCOCC3)cc2)cc1	-14%	-1%	2.4	3%	-2	4	/
CCCCSc1nc(N)c(NC(=O)c2ccco2)c(=O)[nH]1	7%	8%	3.2	-78%[inhibitor]	-3	-3	-3.9%
CCN1CCN(C(c2ccc(OC)c(OC)c2)c2nnnn2C(C)(C)C)CC1 (stereo not given)	-4%	-2%	0.5	2%	0	-8	2.0%
CC(C)(C)S(=O)(=O)c1cnc2c(-c3ccc(Cl)cc3)cnn2c1N	8%	17%	2.4	-13%	3	-12	2.7%
CC(=O)c1ccccc1NC(=O)COC(=O)c1ccccc1NC(=O)c1ccccc1	-9%	28µM*	?	-29%	-2	-9	7.5%
COc1ccc(CCNC(=O)C(=O)NCC2OCCN2S(=O)(=O)c2ccc(OC)cc2)cc1 (stereo not given)	-5%	9%	2.7	-16%	2	-7	0.7%
C[C@@H]1CN([C@@H](C)CO)C(=O)CCCn2nncc2CO[C@@H]1CN(C)C(=O)Nc1ccc(-c2cccs2)cc1	/	/	/	-48%[inhibitor]	1	/	4.4%
Cc1cccc2[nH]c(SCC(=O)N3CCOCC3)nc12	1%	-1%	-2.2	15%	13	-2	1.4%
CCn1nnnc1NCc1cccn1C	-5%	4%	2.0	?	3	-14	-0.3%
CN(CC(=O)Nc1c(Cl)cccc1Cl)C(=O)Cn1[nH]c(=O)c2ccccc2c1=O	14%	/	/	17%	/	-2	-22%
CC(NC(=O)COc1cccnc1[N+](=O)[O-])c1ccc(F)cc1 (stereo not given)	-11%	21%	-0.9	-12%	1	?	/
CS(=O)(=O)Nc1ccc(-c2cc(/C=C3\SC(N)=NC3=O)c[nH]c2=O)cc1	2%	3%	8.5	/	?	-2	-0.5%
COc1ccc(NS(=O)(=O)c2cc3c4c(c2)CCN4C(=O)CC3)c(OC)c1	-7%	/	/	-9%[15.4 µM]	0	-3	1.0%
Cc1ccc(SCc2nnc(N)s2)cc1	-3%	15%	0.8	?	6	-3	0.7%
COC(=O)c1cccc(NC(=O)CCNC(=O)c2ccco2)c1	0%	22%	-0.6	7%[15.4 µM]	0	2	/
CCC(COC(=O)Nc1cccc(C)c1C)NC(=O)OCC(C)C (stereo not given)	-4%	-10%	-0.2	-49%[inhibitor]	-4	-18	-1.4%

Gathered by group, the entries above with a Cl atom.
SMILES	gsp antag	Sfp PPTase inh	Menin MLL FP FL	gsp agonist	CtBP-E1A inh	TRPV1 potentiator	ClpP mod
CN(CC(=O)Nc1ccccc1Cl)C(=O)COC(=O)c1ccc(C(F)(F)F)cc1	14%	/	/	1%	0	-23	-1.6%
OCCN1CCN(CC/C=C2/c3ccccc3Sc3ccc(Cl)cc32)CC1	1%	/	/	/	-22	-3	-3.5%
COC(C(=O)N/N=C(\C)CC(=O)Nc1ccc(Cl)cc1C)c1ccccc1 (stereo not given)	1%	11%	-0.4	0%[15.4 µM]	-13	-13	/
COc1ccc(NC(=O)COC(=O)CCCN2C(=O)c3ccccc3C2=O)cc1Cl	0%	2%	4.3	12%	0	7	-1.6%
CC(C)(C)S(=O)(=O)c1cnc2c(-c3ccc(Cl)cc3)cnn2c1N	8%	17%	2.4	-13%	3	-12	2.7%
CN(CC(=O)Nc1c(Cl)cccc1Cl)C(=O)Cn1[nH]c(=O)c2ccccc2c1=O	14%	/	/	17%	/	-2	-22%

An excerpt from above in order of the Menin MLL FP FL value, descending:
Compound	Sfp PPTase inh	Menin MLL FP FL	gsp agonist	CtBP-E1A inh
Cn1c(-c2ccc(F)cc2)cnc1SCC(=O)Nc1ccccc1N1CCOCC1	-4%	-1.8	-6%	-14
Cc1cccc2[nH]c(SCC(=O)N3CCOCC3)nc12	-1%	-2.2	15%	13
CCc1cccc(CC)c1NC(=O)c1ccccc1	15%	-3.6	-3%	2

Continued:
SMILES	gsp antag	Sfp PPTase inh	Menin MLL FP FL	gsp agonist	CtBP-E1A inh	TRPV1 potentiator	ClpP mod
COC(=O)c1c(-c2ccc(N(C)C)cc2)sc2ccc(OC)cc12	-5%	/	/	/	31	/	5.0%
O=C1CCCCCN1Cc1nnc(SCc2nc3ccccc3s2)n1-c1ccccn1	12%	3%	5.6	-31%[inhibitor]	-1	-5	-3.4%
CN(c1ccc(F)cc1)S(=O)(=O)c1ccc(Cl)c(C(=O)Nc2ccncc2)c1	-11%	/	/	-7%	-2	-11	-2.8%
O=C(NCc1ccc(F)cc1)C(c1ccccc1)N(CC1CCCO1)C(=O)Cn1nnc2ccccc21 (stereo not given)	5%	18%	9.5	0%	3	6	-3.7%
O=C(Nc1nccs1)NC1CCCCC1	13%	22%	-0.2	?	7	3	-0.3%
COc1ccc2c(c1)c(CC(=O)Nc1ccc(C)cc1)c(C)n2C(=O)c1ccc(Cl)cc1	-2%	?	-1.9	-6%	0	0	-4.3%
Cc1c(Cl)c([N+](=O)[O-])nn1Cc1ccc(C(=O)Nc2ccc(Cl)cn2)o1	-2%	12%	3.1	?	11	-2	1.3%
CCN(Cc1ccccc1)Cc1cccc([N+](=O)[O-])c1	-1%	11%	-1.1	-14%	18	-11	-0.6%
Cc1ccc(-c2c(C(=O)NNC(=S)NCC3CCCO3)csc2C)cc1 (stereo not given)	1%	32%[activator]	-4.0	-6%	1	2	-2.4%
